# gsp antagonist: antagonizes gsp, the McCune-Albright syndrome mutation; 340,000 tested, 0.4% active; gsp-mutant cells, cAMP HTRF, 30 min; control for the full effect not named in the record; Potency, µM (series often up to 76.9 µM), for inactives: top-dose activity change, negative = inhibition, usual class: inhibitors; AID 624288; active = falling curve of any shape with a large fitted effect; inconclusive = falling curve, mostly with a smaller effect; inactive = flat or rising curve; cell line not stated here;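 further: intracellular cAMP measured with PDE inhibitor Ro 20-1724 present during compound exposure; potency means the concentration at half of the fitted maximal effect; on the % scale 0 is the no-effect control and ±100 the full control effect; nearly all actives have a fitted effect of over 65% in size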
#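 Measurement of cellular cAMP by homogeneous time-resolved fluorescence following a 30 min compound exposure at 37C. The PDE inhibitor […] was present throughout; the assay buffer was DPBS with 0.05% BSA and 0.005% Tween 20.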
# TRPML1 inh: human mucolipin-1 channel inhibition; activity change, negative = inhibition, % (concentration not given with the values); Q9GZU1; AID 624415; 390,000 tested, 0.02% active; TRPML1-inducible cells, Ca2+ dye fluorescence, FDSS; hits give low values; inhibition of EC80 agonist-evoked calcium signal; in the data active means activity change below about -50%; inconclusive means about -30% to -50%; inactive means above about -30%;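 further: stimulus is agonist 54-4 at its EC80 concentration; on the % scale 0 is the no-effect control and ±100 the full control effect; compound concentration not given in the record; the text of the record puts the active cut at -80%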
# Target sequence (Q9GZU1 whole entry, looked up): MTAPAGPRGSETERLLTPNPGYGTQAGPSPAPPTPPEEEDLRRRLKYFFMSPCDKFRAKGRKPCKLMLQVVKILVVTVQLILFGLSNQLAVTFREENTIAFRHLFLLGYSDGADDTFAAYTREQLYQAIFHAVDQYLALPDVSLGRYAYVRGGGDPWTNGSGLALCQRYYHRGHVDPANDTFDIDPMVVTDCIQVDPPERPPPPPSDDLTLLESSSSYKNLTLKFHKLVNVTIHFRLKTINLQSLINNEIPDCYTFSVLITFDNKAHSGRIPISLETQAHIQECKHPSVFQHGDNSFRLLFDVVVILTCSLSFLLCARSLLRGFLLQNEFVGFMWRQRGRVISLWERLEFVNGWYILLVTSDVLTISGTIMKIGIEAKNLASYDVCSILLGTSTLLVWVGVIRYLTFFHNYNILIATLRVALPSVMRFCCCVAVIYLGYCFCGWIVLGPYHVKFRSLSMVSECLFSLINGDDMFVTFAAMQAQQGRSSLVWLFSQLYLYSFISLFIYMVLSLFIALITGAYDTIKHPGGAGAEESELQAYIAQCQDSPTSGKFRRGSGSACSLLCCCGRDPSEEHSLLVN
#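 Tet-induced TRPML1-DL cells loaded with Ca8 no-wash calcium dye were read kinetically on FDSS. Compound addition was followed by EC80 agonist 54-4 (4 uM final); inhibition was read over 110 s.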
# Menin MLL FP FL: inhibitors of human menin-MLL interaction, wild-type MLL peptide | Fluorescence polarization, fluorescein-MLL peptide displacement from menin | FP activity change, % at 61.4 µM | 290,000 tested, under 10 active | AID 1766; inconclusive = falling polarisation curve, or a change in total fluorescence; inactive = total fluorescence flat and polarisation flat or rising; no compound was filed as active; the % refers to the polarisation; negative = inhibition;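 further: % of control where 0% means no effect; inhibitors lower the polarisation; unlabelled MLL peptide was the positive control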
# ClpP mod: qHTS Assay for Activators of ClpP. AID 651965, 2013. purified B. subtilis ClpP, FRET peptide cleavage, 20 min. 340,000 tested, 1.9% active. ATP-dependent Clp protease proteolytic subunit (Bacillus subtilis (strain 168)), P80244. Potency, µM (doses to about 57.5 µM), for inactives: at the highest dose activity change, negative = active; active = well fitted falling curve with a large enough effect; inconclusive = small, poorly fitted or top-dose-only effect; inactive = no such curve, though single readings can be large or run the other way; further: potency means the concentration at half of the fitted maximal effect; the source files actives as falling curves though it sought activators and does not explain the sign; nearly all actives have a fitted effect of over 65% in size; many hits overshoot -100%
# Target sequence (P80244 whole entry, looked up): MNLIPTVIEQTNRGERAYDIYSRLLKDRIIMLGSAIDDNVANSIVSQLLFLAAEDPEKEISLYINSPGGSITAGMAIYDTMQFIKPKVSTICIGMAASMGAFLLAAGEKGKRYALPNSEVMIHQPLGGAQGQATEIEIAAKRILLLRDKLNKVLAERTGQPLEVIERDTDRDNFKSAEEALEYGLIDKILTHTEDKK
#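 Buffer: 100 mM Tris/HCl pH8, 100 mM KCl, 0.05% low protease BSA, 2.5% glycerol, 0.01% Tween-20. ClpP 10 microg/mL final; 20 min RT; delta FRET normalized to ADEP and DMSO controls.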
# gsp agonist: activates gsp, the McCune-Albright syndrome mutation; gsp mutant cells, cAMP HTRF, 30 min; control for the full effect not named in the record; 340,000 tested, 0.13% active; Potency, µM (top dose mostly 76.9 µM), without a hit: at the highest dose activation (cAMP increase), hits mostly activators; AID 624287; active = well fitted activation curve with a large enough effect; inconclusive = small, poorly fitted or top-dose-only effect, or another doubt; inactive = no such curve, though single readings can be large or run the other way; cell line not stated here;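 further: phosphodiesterase inhibitor Ro 20-1724 added with compounds to block cAMP breakdown; potency means the concentration at half of the fitted maximal effect; nearly all actives have a fitted effect of over 60% in size; about a fifth of the inactives were tested at one dose only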
#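 Cells in DMEM/10% FBS with G418 were pretreated with compounds in DMSO plus […] (300 uM stock) for 30 min at 37C. cAMP was measured by HTRF (cAMP-d2 plus anti-cAMP antibody-K) after 30 min at room temperature.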
# TRPML1 agonist: human mucolipin-1 channel agonism. TRPML1-expressing cells, Ca2+ dye fluorescence, FDSS; host cell line not named in the record; reference of the full effect not given here. activation, % (test concentration not listed). 410,000 tested, 0.12% active. AID 624414; in the data active = activation above about 50%; inconclusive = about 30% to 50%; inactive = below about 30%; further: 0% is about no effect; the text of the record puts the active cut at 80%
#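 Calcium fluorescence on an FDSS kinetic reader gave the read-out. Tet-induced TRPML1-DL cells were plated overnight, dye-loaded (Ca8 with quencher, 45-90 min, room temperature, dark), then read 110 s after compound addition, and again 110 s after 4uM final 54-4 (EC80).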
# An asterisk follows results filed as active; ? = inconclusive; . = not tested or not shown; & = joins results of further samples; [ ] = dose if it differs, or a comment.
SMILES,gsp antagonist,TRPML1 inh,Menin MLL FP FL,ClpP mod,gsp agonist,TRPML1 agonist
COc1ccc(/C=C/C2=CCN(C)CC2)cc1,7%,-20,-0.1,-5.9%,-66%[inhibitor],1.0
CCOC(=O)C1C(OC(=O)c2ccccc2)CC2CCC1N2C (configuration not stated),3%,4,.,-2.3%,.,-0.2
CC(C)CCC1(CN2CCCC2=O)C(=O)NC(=O)NC1=O,7%,-7,5.0,?,?,-0.6
CCCCCC1(C(C)C)C(=O)NC(=S)NC1=O,5%,-11,.,-1.1%,?,0.0
Cc1cccc(NC(=O)N2C[C@H]3C[C@@H](C2)c2cccc(=O)n2C3)c1,0%,.,2.7,-8.7%,.,.
COC(=O)C1=C(c2ccc(F)cc2OCc2ccccc2)C[C@@H]2CC[C@H]1N2C(=O)NCc1ccccc1OC,-17%,9,.,-1.0%,.,2.4
O=C1CC(=O)N(c2cccc(C(F)(F)F)c2)C(=O)N1,0%,-15,?,0.0%,?,0.7
Cc1ccc(-c2cc(C(F)F)n3ncc(C(=O)N4CCC5(CC4)OCCO5)c3n2)cc1,-9%,4,4.7,-16%,34%,1.1
C=CCN1C(=O)/C(=C\c2ccc(N3CCOCC3)o2)C(=O)NC1=S,-6%,-9,?,-26%,-10%,2.8
Cc1ccc(Cn2ccccc2=N)cc1,16%,9,6.0,-21%,7%[15.4 µM],-0.8
Cc1c(C(=O)N2CCC3(CC2)OCCO3)sc2ncnc(N3CCc4ccccc4C3)c12,-21%,9,-0.1,.,?,-0.5
O=C1OCCC1NC1=NCCC1 (configuration not stated),7%,2,-1.3,1.3%,-21%,0.0

# Grouped by structure: those above with an aryl methoxy group
SMILES,gsp antagonist,TRPML1 inh,Menin MLL FP FL,ClpP mod,gsp agonist,TRPML1 agonist
COc1ccc(/C=C/C2=CCN(C)CC2)cc1,7%,-20,-0.1,-5.9%,-66%[inhibitor],1.0
COC(=O)C1=C(c2ccc(F)cc2OCc2ccccc2)C[C@@H]2CC[C@H]1N2C(=O)NCc1ccccc1OC,-17%,9,.,-1.0%,.,2.4

# Two entries picked at random from those above:
SMILES,gsp antagonist,TRPML1 inh,Menin MLL FP FL,ClpP mod,gsp agonist,TRPML1 agonist
COc1ccc(/C=C/C2=CCN(C)CC2)cc1,7%,-20,-0.1,-5.9%,-66%[inhibitor],1.0
Cc1ccc(Cn2ccccc2=N)cc1,16%,9,6.0,-21%,7%[15.4 µM],-0.8

# New compounds follow.
SMILES,gsp antagonist,TRPML1 inh,Menin MLL FP FL,ClpP mod,gsp agonist,TRPML1 agonist
Cc1nn(-c2ccccc2)c(Cl)c1/C=C(/CC(=O)O)c1nc2ccccc2s1,?,8,.,.,-5%,0.3
COc1cc(C2(C#N)CCN(C)CC2)cc(OC)c1OC,7%,-3,.,.,?,0.2
COc1cccc(-n2nc(C(=O)N3CCC4(CC3)OCCO4)c3ccccc3c2=O)c1,7%,8,1.6,1.0%,-25%,-0.8
O=c1[nH]cc(COCC(F)(F)C(F)(F)C(F)(F)F)c(=O)[nH]1,7%,7,-3.2,.,-2%,-0.1
Cc1cc(/C=C2/C(=O)NC(=O)N(C)C2=O)c(C)n1-c1ccccc1,11%,13,-0.4,.,?,-0.8
CCCC12CN3CC(C)(CN(C1)C3c1ccccn1)C2=O (configuration not stated),.,-8,.,-0.1%,.,-0.4
CCCCn1c(=O)c(C(=O)Nc2ccccc2S(N)(=O)=O)c(O)c2ccccc21,?,1,1.3,10%,6%,1.8
CCOP(=S)(OCC)Oc1nc(Cl)c(Cl)cc1Cl,-3%,4,0.2,0.3%,.,-0.3
COC(=O)C1=C(c2ccc(S(C)(=O)=O)cc2)C[C@@H]2CC[C@H]1N2C(=O)NC1CCCCC1,1%,8,.,1.2%,9%,-0.5
COC(=O)C1=C(c2ccccc2)C[C@@H]2CC[C@H]1N2C(=O)NCCO,4%,-3,.,1.0%,.,0.1
Cc1cc2oc(=O)cc(-c3cc4ccccc4o3)c2cc1OC(=O)N(C)C,-21%,-2,.,?,-4%,-1.1
CC(C)Oc1ccc(CC2(CCc3ccncc3)C(=O)NC(=O)NC2=O)cc1,-19%,-1,1.8,1.1%,7%[15.4 µM],-0.6
CCCCC/C(=N/O)c1c(C)[nH]c2ccccc12,0%,2,-0.4,.,4%,0.0
C[C@H]1O[C@H]1P(=O)(O)O,5%,-15,2.1&-0.2,2.3%,.,-0.4
CN1C(=O)N(C)C(=O)C(CCc2ccccn2)(CCc2ccccn2)C1=O,-2%,-9,-1.3,-1.9%,-3%,-0.1
O=C(c1cccc(N2CCCC2=O)c1)N1CCC2(CC1)OCCO2,5%,8,2.4,-1.8%,6%,-0.5
COC(=O)c1ccccc1N=Cc1c(O)[nH]c(=S)[nH]c1=O,53%,-13,-0.7,.,18%[15.4 µM],0.0
CCCCOc1ccc(CCN)cc1Cl,21%,0,-0.7,1.2%,?,1.2
COc1cc(CN2CCSCC2)cc(OC)c1OC,-34%,-4,0.9,1.6%,?,-1.2
CCC(=NC(C)c1ccccc1)c1c(O)n(C)c(=O)n(C)c1=O (configuration not stated),-39%,23,3.0,-2.7%,-25%,-0.1
CNCC(O)c1ccc(O)cc1 (configuration not stated),1%,4,-0.1&-2.6,-0.2%,.,0.1
CC(NC(=O)Oc1ccccc1)C(c1cccs1)N1CCOCC1 (configuration not stated),4%,-2,2.2,-1.8%,-2%,0.0
CSC(=Nc1ccccc1)c1c(O)n(C)c(=O)n(C)c1=O,-20%,-5,16,-0.1%,-19%,0.8
O=C1C(=O)c2ccccc2-c2ccccc21,18µM*,-4,-0.2,2.2%,.,4.4
CN(C)C1(CNC(=O)c2ccc(Cl)c(S(=O)(=O)NCc3ccco3)c2)CCCCC1,-10%,14,-5.6,1.2%,-4%,0.1
CCC(CO)NC(=O)C1C=C2c3cccc4[nH]cc(c34)CC2N(C)C1 (configuration not stated),-5%,2,?,3.9%,.,-0.6
CCOc1ccc(-n2nc3c(=S)[nH]nc(C)c3c2C)cc1,11%,9,6.6,-3.3%,?,0.8
O=C(CNC(=O)OCc1ccccc1)NCC(=O)Nc1ccc(Br)cc1C(=O)c1ccccc1,24%,9,-3.2,25µM*,14%,0.5
Cc1nc2ccccc2c(=O)n1-c1c(Cl)cccc1Cl,.,0,.,3.1%,-14%,-0.3
CNCC(C)c1ccccc1 (configuration not stated),8%,1,2.7,.,14%,-1.0
CC1(C)CSC(Nc2ccc(F)c(Cl)c2)=N1,-9%,-24,-1.4,-0.5%,-5%,-0.6
CC/C(=N\NC(N)=O)c1c(O)[nH]c(=O)[nH]c1=O,13%,-8,2.9,0.9%,-2%[15.4 µM],0.4
COc1ccc(NC(=O)c2ccc(=O)[nH]c2)cc1S(=O)(=O)N1CCOCC1,9%,15,.,-1.8%,-46%[inhibitor],-0.2
C/C(=N\NC(=O)c1ccccc1)c1c(O)n(C2CCCCC2)c(=O)[nH]c1=O,1%,11,.,-7.8%,2%,0.5
CC(C)NC(=O)c1ccc(N2CC3CC(C2)c2cccc(=O)n2C3)c([N+](=O)[O-])c1 (configuration not stated),14%,21,1.1,-0.1%,-8%[15.4 µM],-1.0
CC(C)NC(C)Cc1ccc(I)cc1 (configuration not stated),9%,6,-0.4,2.7%,.,-0.6
COC1/C=C/C=C(\C)Cc2cc(O)c(Cl)c(c2)N(C)C(=O)CC(OC(=O)C(C)C)C2(C)OC2C(C)C2CC1(O)NC(=O)O2 (configuration not stated),-2%,-16,.,1.4%,-23%,0.4
O=c1[nH]c(=S)n(C2CC2)c(O)c1/C=N/N1CCOCC1,-1%,2,.,-1.8%,-14%,-0.2
C[C@@H]1C(=O)O[C@H]2[C@H](O)[C@]34[C@@H]5OC(=O)[C@]3(OC3OC(=O)[C@H](O)C34[C@H](C(C)(C)C)[C@@H]5O)[C@@]12O (some centres not stated),9%,8,.,1.7%,.,-0.9
CN1CCN(c2ccc(NC(=O)C(C)(C)C)cc2)CC1,13%,13,1.1,-2.3%,?,0.6
CN(C)/C=C(\C=[N+](C)C)c1[nH]ncc1[N+](=O)[O-],13%,4,-0.1,.,9%[15.4 µM],-0.4
COC(=O)C1=C(c2ccc(F)cc2OCc2ccccc2)C[C@@H]2CC[C@H]1N2C(=O)NCCCc1ccccc1,-10%,0,.,-0.4%,-1%,0.3
CN(C)C(=O)Oc1ccc([N+](=O)[O-])cc1,9%,-1,5.3,.,-7%[15.4 µM],2.1
COc1ccc2nc3c(C)n(C)ccc-3c2c1,3%,-14,.,-13%,9%,0.0

# Part of the list above, with two lines to a compound.
# Screens in order – gsp antagonist	TRPML1 inh	Menin MLL FP FL	ClpP mod	gsp agonist	TRPML1 agonist
- O=c1[nH]c(=S)n(C2CC2)c(O)c1/C=N/N1CCOCC1
  -1%	2	.	-1.8%	-14%	-0.2
- C[C@@H]1C(=O)O[C@H]2[C@H](O)[C@]34[C@@H]5OC(=O)[C@]3(OC3OC(=O)[C@H](O)C34[C@H](C(C)(C)C)[C@@H]5O)[C@@]12O (some centres not stated)
  9%	8	.	1.7%	.	-0.9
- CN1CCN(c2ccc(NC(=O)C(C)(C)C)cc2)CC1
  13%	13	1.1	-2.3%	?	0.6
- CN(C)/C=C(\C=[N+](C)C)c1[nH]ncc1[N+](=O)[O-]
  13%	4	-0.1	.	9%[15.4 µM]	-0.4
- COC(=O)C1=C(c2ccc(F)cc2OCc2ccccc2)C[C@@H]2CC[C@H]1N2C(=O)NCCCc1ccccc1
  -10%	0	.	-0.4%	-1%	0.3
- CN(C)C(=O)Oc1ccc([N+](=O)[O-])cc1
  9%	-1	5.3	.	-7%[15.4 µM]	2.1
- COc1ccc2nc3c(C)n(C)ccc-3c2c1
  3%	-14	.	-13%	9%	0.0

# The list is partial; rates above refer to the full screens.
